Screens as filed in PubChem.
NPYLR7 agonist – activates Aedes aegypti NPYLR7 receptor; AID 1259423; HEK293T NPYLR7/Galpha15, GCaMP6s calcium fluorescence; 270,000 tested, 0.15% active; activation, % at 10 µM; in the data active = activation above about 40%;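 also: 0% = vehicle and 100% = reference agonist at the receptor; some compounds past the cut are filed as inactive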
NPYLR7 agonist max-min – further read-out of NPYLR7 agonist, marked with its call; activation, %; measured here: Max-Min RFU normalised activation; some inactives read as strong as hits;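 span of the calcium signal over five minutes; 0% = vehicle and 100% = native peptide agonist; compound fluorescence can raise it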
Numbers without * were called inactive; & = joins results of further samples. This is a subset; count on the stated rates, not on these rows.

Below each SMILES: NPYLR7 agonist, NPYLR7 agonist max-min
1	CCCCCOc1ccc(C(=O)NCCC(c2ccccc2)c2ccccc2)cc1OCCCCC
  3, -5
2	O=C1CN(C(=O)C2CCN(C3CCN(CCCc4ccccc4)CC3)CC2)CCN1
  20, 10
3	Cc1cc(C)cc(N=C2NC(=O)/C(=C\c3cc(Br)c(O)c([N+](=O)[O-])c3)S2)c1
  -16, -23
4	Cc1nc(N2CCC(NC3CCCc4ccccc43)CC2)nc2ccc(F)cc12 (stereo unspecified)
  6, 2
5	O=C1CCC([N+](=O)[O-])C(c2cccc(Cl)c2Cl)N1 (stereo unspecified)
  -11, -18
6	Cc1cc(C(=O)COC(=O)C2=COCCO2)c(C)n1C1CC1
  8, 9
7	Cc1ccc(S(=O)(=O)N2CCN(c3ccc([N+](=O)[O-])cc3)C(=O)C2C)cc1 (stereo unspecified)
  5, 25
8	O=C1/C(=C/c2nc3ccccc3c(=O)[nH]2)c2ccccc2N1Cc1ccccc1
  5, 11
9	COc1ccccc1NC(=O)N(Cc1cccc(OS(C)(=O)=O)c1)Cc1ccco1
  20, 17
10	Cc1ccc(N2CCN(N=Cc3cccc4ccccc34)CC2)cc1
  -1, -5
11	Cn1ccnc1SCc1cc(=O)c(OC(=O)/C=C/c2ccccc2)co1
  3, 1
12	O=C(NCc1ccccn1)C1CCN(C2CCN(C(=O)Cc3cccnc3)CC2)CC1
  4, 0
13	COCCn1cc(C(=O)N2CCCCCC2)c2nn(-c3ccccc3)c(=O)c-2c1
  7, 3
14	Cc1cc(CC(=O)N2CCOc3c(O)cc(-c4cccc(Cl)c4)cc3C2)on1
  8, 0
15	O=c1oc2ccccc2cc1-c1csc(Nc2cc(C(F)(F)F)ccc2Cl)n1
  -3, -10
16	CCc1nc2cc(NC(=O)N3CCCC3CN3CCOCC3)ccc2o1 (stereo unspecified)
  5, 3
17	O=C(Cc1noc2ccccc12)N1CCCC(c2ccn[nH]2)C1 (stereo unspecified)
  8, 5
18	CC(C)N(CCC#N)C(=O)/C=C/c1ccc(F)cc1
  4, 1
19	Cc1ccnc(SCCCn2c(N3CCc4ccccc4C3)nc3c2c(=O)[nH]c(=O)n3C)n1
  0, 24
20	COCCNC(=O)c1ccc(-n2nc(-c3ccccc3)cc2NC(C)=O)cc1
  -10, -15
21	C/C(=N/NC(=O)COc1ccc(Cl)c(C)c1)c1cccc(NC(=O)c2ccc(C)cc2)c1
  2, 10
22	COc1cc(/C=C/C(=O)Nc2cc(C)nn2-c2nc(C)c(C)c(=O)[nH]2)cc(OC)c1OC
  4, 1
23	CCSc1nc2c(c(=O)n1-c1ccccc1)SCC2
  -2, -4
24	O=C(NCc1ccccn1)C1CCCN(C2CCN(C(=O)c3ccoc3)CC2)C1 (stereo unspecified)
  10, 9
25	O=C(NCCCNC(=O)[C@H]1CCCN1S(=O)(=O)c1ccc(Cl)c([N+](=O)[O-])c1)c1ccccc1
  24, 25
26	CNC(=O)c1ccc(CNc2ncnc3sc(C)c(C)c23)o1
  2, 2
27	COc1cc(COC2CCCN(C(=O)c3ccc(Cl)c(Cl)c3)C2)cc(OC)c1 (stereo unspecified)
  -2, 5
28	CCOC(=O)CN1C(=O)C2(c3ccccc31)c1c(cc(C)n(C)c1=O)OC(=N)C2C#N (stereo unspecified)
  0, -5
29	O=c1[nH]c(NCCC2CCCCO2)nc2c1CCNCC2 (stereo unspecified)
  -4, -5
30	Fc1cccc(F)c1CCC1CCCN(Cc2ccncc2)C1 (stereo unspecified)
  8, 4
31	CCC(NC(=O)c1n[nH]c(=O)[nH]1)c1ncc(C)s1 (stereo unspecified)
  2, 0
32	Cc1cc2ncn(CC(O)c3ccc4c(c3)OCCO4)c2cc1C (stereo unspecified)
  -4, -5
33	Cc1cc(NC(=O)C(C)(C)CCl)n(-c2ncnc3c2cnn3-c2cccc(C)c2C)n1
  9, 6
34	COc1ccc(OCc2nc(CSc3ccc(C(F)(F)F)cn3)cs2)cc1
  2, 9
35	CCN(CC)C1=C(c2c(C)[nH]n(-c3cccc(C)c3C)c2=O)C(=O)N(c2ccccc2)C1=O
  16, 18
36	O=C(NC1CCCCC1)c1nn2c(C(F)(F)F)cc(-c3ccc(Br)cc3)nc2c1Br
  4, 5
37	COc1ccc(CN2CCCC(N3CCc4ccccc4C3)C2)c(OC)c1 (stereo unspecified)
  8, 4
38	CCCN(CCC)c1cc(Oc2ccccc2Cl)ncn1
  3, 3
39	CC(=O)Oc1ccc(/C=C2N=C(/C=C/c3ccc(Cl)cc3)OC/2=O)cc1
  1, -6
40	O=c1[nH]c2cc3ccccc3cc2nc1C(F)(F)F
  7, 7
41	CC1=C(C(=O)OC(C)C)C(c2cccnc2)C2=C(CC(c3ccc(Cl)cc3)CC2=O)N1 (stereo unspecified)
  4, 3
42	Cc1ccc(-c2nnc(N)o2)s1
  -3, -2
43	CC1=CC[C@@H]2CN(C(=O)CCCn3nc(C)cc3C)C[C@@H]2C1
  3, 2
44	Cn1c(-c2ccccc2)nn(CN(Cc2ccncc2)C2CC2)c1=S
  14, 14
45	Cc1nccn1-c1ccccc1CNC(=O)CC1NC(=O)c2ccccc21 (stereo unspecified)
  13, 7
46	O=C(CSc1nnnn1C1CCCC1)Nc1cc2[nH]c(=O)[nH]c2cc1Br
  18, 16
47	CCCCCCCCCC(=O)Nc1ccc(N2CCCC2)c(C(=O)NCc2ccccc2)c1
  -5, -3
48	Cc1ccc(C)c(S(=O)(=O)N2CCCCC2CCNC(=O)C(=O)NCc2cccnc2)c1 (stereo unspecified)
  7, 2
49	O=C1C2Sc3[nH]c(=O)sc3C(c3ccccc3)C2C(=O)N1c1ccc(Br)cc1 (stereo unspecified)
  19, 10
50	O=C(c1cn(CCCc2ccccc2)nn1)N1CCC(C(=O)N2CCCC2)CC1
  16, 10
51	COc1c(C)c2c(c(O)c1C/C=C(\C)CCC(=O)O)C(=O)OC2
  -6&-6, -11&-7
52	O=C(c1ccco1)N1CCN(S(=O)(=O)NCc2ccccc2)CC1
  -2, -1
53	CC(C)(C)c1cc(NC(=O)c2cc(C(F)(F)F)ccc2C(F)(F)F)n(-c2cc(Cl)ccc2Cl)n1
  19, 8
54	O=[N+]([O-])c1cc(NS(=O)(=O)c2cc(Cl)cc(Cl)c2)ccc1Cl
  4, 3
55	CC(C)(C)CC(C)(C)Nc1c(-c2ccc(OC(=O)C3CCCC3)cc2)nc2ccccn12
  -15, 0
56	O=C1CC(/C=C/c2ccccc2)Cc2c1cnc1nc(N3CCCCC3)[nH]c(=O)c21 (stereo unspecified)
  0, 22
57	CCCC(=O)Nc1cccc(C(=O)N(C)CC(C)N2CCOCC2)c1 (stereo unspecified)
  2, 0
58	COc1cn(CC(=O)Nc2ccc(C)c(Cl)c2)c(CN2CCCCCC2)cc1=O
  1, 0
59	COC(=O)CC1C(=O)NCCN1Cc1nc(-c2ccoc2)oc1C (stereo unspecified)
  2&-7, -3&-12
60	Cc1ccc(OC(C)(C)C(=O)N2CCN3C(=O)CN(C)C(=O)C3C2)cc1 (stereo unspecified)
  6, 4

Next part, starting with the last seven of the part before.
Below each SMILES: NPYLR7 agonist, NPYLR7 agonist max-min
54	O=[N+]([O-])c1cc(NS(=O)(=O)c2cc(Cl)cc(Cl)c2)ccc1Cl
  4, 3
55	CC(C)(C)CC(C)(C)Nc1c(-c2ccc(OC(=O)C3CCCC3)cc2)nc2ccccn12
  -15, 0
56	O=C1CC(/C=C/c2ccccc2)Cc2c1cnc1nc(N3CCCCC3)[nH]c(=O)c21 (stereo unspecified)
  0, 22
57	CCCC(=O)Nc1cccc(C(=O)N(C)CC(C)N2CCOCC2)c1 (stereo unspecified)
  2, 0
58	COc1cn(CC(=O)Nc2ccc(C)c(Cl)c2)c(CN2CCCCCC2)cc1=O
  1, 0
59	COC(=O)CC1C(=O)NCCN1Cc1nc(-c2ccoc2)oc1C (stereo unspecified)
  2&-7, -3&-12
60	Cc1ccc(OC(C)(C)C(=O)N2CCN3C(=O)CN(C)C(=O)C3C2)cc1 (stereo unspecified)
  6, 4
61	CCCc1oncc1C(=O)N1CCC2(CC1)C(=O)N(C)c1ccccc12
  -7, -9
62	N[C@@]1(C(=O)O)CS(=O)(=O)[C@H]2[C@H](C(=O)O)[C@H]21
  -2, -5
63	Cc1noc(C)c1COC(=O)c1cc(Br)c(Br)s1
  3&-1, 3&-2
64	COC1CCCCC1NC(=O)NCc1ccc(-n2ccnc2)c(F)c1 (stereo unspecified)
  -1, -2
65	O=C(NCCSCc1ccco1)c1ccc(-c2cc(-c3ccc(Cl)cc3Cl)[nH]n2)cc1
  0, 9
66	CCCCCCCCC(=O)Nc1c(-c2cccc(F)c2)nc2ccccn12
  3, 10
67	Cc1cc(C(=O)CSc2nnc(-c3ccco3)o2)c(C)n1C1CC1
  8, 7
68	Cc1noc(C)c1Cn1nc(C2CCCNC2)n(-c2ccccc2)c1=O (stereo unspecified)
  3, 1
69	Cc1cccc(-c2ccnc3nc(N4CCN(S(=O)(=O)c5ccc(Br)cc5)CC4)nn23)c1
  5, 0
70	CCOc1ccccc1NC(=O)N1CC(=O)N2CCc3ccccc3C2C1 (stereo unspecified)
  0, 16
71	COCCNc1cc(-c2ncccc2C(F)(F)F)c2cc[nH]c2n1
  0, -4
72	C[C@H]1C(=O)N(C)CCN1C(=O)c1ccc(OC2CCN(Cc3ccccn3)CC2)cc1
  -5, -5
73	CCNc1ncc(C(=O)NCc2ccc3nsnc3c2)cn1
  0, -2
74	Cc1ccc(S(N)(=O)=O)cc1C(=O)OC(C(=O)N1CCCC1)c1ccccc1 (stereo unspecified)
  -2, 0
75	CCOc1ccc(-c2cc3c(=O)n(CC(N)=O)ncn3n2)cc1
  -14, -18
76	Cc1ccc(S(=O)(=O)/C=C/C#N)cc1
  5, -38
77	NC1=NC(=Nc2ncc(S(=O)(=O)c3ccc([N+](=O)[O-])cc3)s2)c2ccccc21
  9, 10
78	COc1ccccc1C=CC(=O)c1ccc(I)cc1
  6, 10
79	CSc1ccc(C(=O)NCC(=O)NCC(c2ccccc2)c2ccccc2)cc1
  -14, -18
80	CN1CCN(CC(O)COc2ccc(C34CC5CC(CC(C5)C3)C4)cc2)CC1 (stereo unspecified)
  8, 3
81	CCC1(CC)CC(=O)N(c2cccc(OC(F)F)c2C)C1=O
  -2, -4
82	O=S1(=O)NC(=NCCc2ccc3c(c2)OCCO3)c2ccccc21
  -3, -4
83	O=C(Nc1ccccc1N(C(=O)C1CC1)S(=O)(=O)c1cccs1)C1CC1
  2, -1
84	COC(=O)C1=C(C)NC2=C(C(=O)CC(C)(C)C2)C1c1coc2ccc(C)cc2c1=O (stereo unspecified)
  4, 5
85	Cc1nn(C)c(C)c1CCC(=O)NC(CCO)C1CC1 (stereo unspecified)
  -1, -1
86	CCCC1CCC(c2nc(-c3ccc(Cl)cc3)no2)CC1 (stereo unspecified)
  3, 2
87	Cc1cc(C(=O)N(CC2CCCO2)c2nc3ccc(F)cc3s2)nn1C (stereo unspecified)
  5, 0
88	COc1cccc(C(=O)N2CCCC(OCc3cccc(C(F)(F)F)c3)C2)c1 (stereo unspecified)
  -4, -2
89	CC(NC(=O)Cc1cccc2cccnc12)C1CC2CCC1C2 (stereo unspecified)
  3, 2
90	CC(C)C(=O)N1N=C(c2ccc(NS(=O)(=O)c3ccccc3)cc2)CC1c1ccco1 (stereo unspecified)
  -1, 15
91	COc1ccccc1C1SCC(=O)N1CCC(=O)O (stereo unspecified)
  4, 5
92	CCn1c(Nc2cccc(Cl)c2)nc2ccccc21
  -5, -6
93	Cc1ccc(C(=O)NCCN2CCn3cc(OCc4ccccc4)c(=O)cc3C2=O)cc1C
  2, -2
94	Cc1cccnc1C1=NOC(Cc2ccccc2)C(=O)N1Cc1ccc2c(c1)OCO2 (stereo unspecified)
  6, 4
95	CCOCCCn1c(SCC(=O)NCC2CCCO2)nc2cc(C(=O)OCC)ccc21 (stereo unspecified)
  25, 29
96	Cc1sc2nc(-c3cccnc3)nc(NC3CCS(=O)(=O)C3)c2c1C (stereo unspecified)
  2, 2
97	COc1ccnc(N2CCN(C(=O)OC(C)(C)C)CC2)n1
  0, -1
98	Cc1cc(C)n(-c2cccc(-c3ncccc3C(=O)N3CCCC3)c2)n1
  7, 4
99	O=C(NCCC(=O)N1CCOC(c2ccccc2)C1)OCc1ccccc1 (stereo unspecified)
  -7, -11
100	COC(=O)c1ccc(C2C(C#N)=C(C)NC3=C2C(=O)CC(C)(C)C3)cc1 (stereo unspecified)
  4, 1
101	CCN(CC)P1(=Nc2ccccc2)C(=C2N(C)c3ccccc3C2(C)C)C=NN1C (stereo unspecified)
  8, 5
102	COC(=O)CCC(=O)N1CCN(c2nc3nccc(-c4ccc(C(C)(C)C)cc4)n3n2)CC1
  7, 1
103	CC1Cc2ccccc2N1C(=O)Cn1c(=O)cc(O)c2ccccc21 (stereo unspecified)
  0, -1
104	CC(C)(C)CC(C)(C)Nc1c(-c2ccccc2)nc2ccccn12
  -9, -5
105	C=CCCC(O)CN(Cc1ccccc1)Cc1ccccc1C (stereo unspecified)
  22, 25
106	CCOC(=O)N1C2Sc3cccnc3C1Sc1ncccc12 (stereo unspecified)
  6, 9
107	Cc1c(C(=O)N2CCC(n3c(=O)[nH]c4ccccc43)CC2)cc(-c2ccccc2)n1-c1ccc(F)cc1F
  3, 4
108	Cc1nnc(SCC(=O)N2CCN(CC(=O)Nc3ccc(F)cc3)CC2)n1-c1ccccc1
  5, 10
109	COc1ccc(S(=O)(=O)Nc2ccc(C)c(C)c2)cc1
  -1, -3
110	Cc1ccn2cc(C(=O)Nc3nc4ccccc4s3)nc2c1
  11, 10
111	Cc1ccnc(C(NCc2nc(-c3ccco3)no2)C2CC2)c1 (stereo unspecified)
  -1, 0
112	Cc1nc(N2CCC(C(=O)NC3C4CC5CC3CC(O)(C5)C4)CC2)nc2ccccc12 (stereo unspecified)
  19, 7
113	CC1(C(=O)NCCC(c2ccccc2)c2ccccc2)CCOCC1
  9, 3

By substructure, the entries above containing a COOH group
Below each SMILES: NPYLR7 agonist, NPYLR7 agonist max-min
51	COc1c(C)c2c(c(O)c1C/C=C(\C)CCC(=O)O)C(=O)OC2
  -6&-6, -11&-7
62	N[C@@]1(C(=O)O)CS(=O)(=O)[C@H]2[C@H](C(=O)O)[C@H]21
  -2, -5
91	COc1ccccc1C1SCC(=O)N1CCC(=O)O (stereo unspecified)
  4, 5
